From PubChem BioAssay
GLA inh pH 4.5 – inhibitors of human alpha-galactosidase A at pH 4.5; purified enzyme, 4-MU-alpha-Gal fluorescence, pH 4.5; activity change, negative = inhibition, % at 105 µM; 230,000 tested, under 10 active; AID 1467; inconclusive = small, poorly fitted or top-dose-only inhibition, or a rising curve; inactive = flat fitted curve, though single readings scatter; no compound was filed as active;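 note: 0% = full activity with enzyme and -100% = basal without enzyme; dose as in the result columns while the protocol names 77 µM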
Target sequence (P06280 whole entry, looked up): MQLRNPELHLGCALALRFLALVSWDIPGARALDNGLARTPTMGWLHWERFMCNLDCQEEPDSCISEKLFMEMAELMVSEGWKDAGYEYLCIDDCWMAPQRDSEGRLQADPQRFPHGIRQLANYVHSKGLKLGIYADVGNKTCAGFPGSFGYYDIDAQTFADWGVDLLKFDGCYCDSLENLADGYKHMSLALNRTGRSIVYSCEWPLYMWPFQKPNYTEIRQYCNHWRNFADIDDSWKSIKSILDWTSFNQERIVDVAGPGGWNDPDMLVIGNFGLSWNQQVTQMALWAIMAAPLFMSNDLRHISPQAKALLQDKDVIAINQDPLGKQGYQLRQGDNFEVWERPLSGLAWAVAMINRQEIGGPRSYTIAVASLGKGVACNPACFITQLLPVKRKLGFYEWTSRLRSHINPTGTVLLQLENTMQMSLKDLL
miR-21 FLuc – miR-21 reporter, rising signal; HeLa miR-21 FLuc reporter, luciferase, 48 h; Potency, µM (doses to about 38.3 µM), inactives show top-dose reporter change, positive = more light; 340,000 tested, under 10 active; AID 2288; active = well fitted rising curve with a large enough effect; inconclusive = small, poorly fitted or top-dose-only effect; inactive = no such curve, though single readings can be large or run the other way;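 note: % of control where 0% means no effect; miR-21 action dims this reporter so a rising signal means less miR-21 action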
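Compounds were titrated across several concentrations (up to approximately 40 uM) and incubated 48 hours with HeLa miR-21-FLuc reporter cells (miR-21 target sequence downstream of FLuc, endogenous miR-21). Readout was firefly luciferase luminescence after lytic detection reagent.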
* marks the source's active call; other numbers are inactive results; ? = inconclusive; . = not tested or not shown; & = joins results of further samples. A portion of the library; rates above refer to the full screens.

The opening two records, to show the layout:
(1) CN(C)C1C(=O)C(C(N)=O)=C(O)[C@@]2(O)C(=O)C3=C(O)c4c(O)cccc4[C@@](C)(O)C3[C@H](O)C12 (stereo not given in full)
(2) COC1=C[C@H]2C3=C([C@H]2C1=O)[C@H](NC(C)=O)CCc1cc(OC)c(OC)c(OC)c13

screen / no. | 1 | 2
miR-21 FLuc | . | .
GLA inh pH 4.5 | -11 | 10

The listing, repeating the preview:
(1) CN(C)C1C(=O)C(C(N)=O)=C(O)[C@@]2(O)C(=O)C3=C(O)c4c(O)cccc4[C@@](C)(O)C3[C@H](O)C12 (stereo not given in full)
(2) COC1=C[C@H]2C3=C([C@H]2C1=O)[C@H](NC(C)=O)CCc1cc(OC)c(OC)c(OC)c13
(3) COc1ccc2[nH]cc(C3=CCNCC3)c2c1
(4) NNc1ccccc1
(5) C=CCN1CCC23c4c5ccc(O)c4O[C@H]2C(=O)CC[C@@]3(O)C1C5 (stereo not given in full)
(6) CCCCC/C=C\C/C=C\C/C=C\CCCCCCC(=O)NCCO
(7) CCCCC/C=C\C/C=C\C/C=C\C/C=C\CCCCOC(CO)CO
(8) CC(=O)C1CCC2C3CCC4CC(O)CCC4(C)C3CC(O)C12C (stereo not given)

screen / no. | 1 | 2 | 3 | 4 | 5 | 6 | 7 | 8
miR-21 FLuc | . | . | . | . | . | . | . | .
GLA inh pH 4.5 | -11 | 10 | -2 | -6 | -3 | -2&-5 | 1 | 1

(9) N#C/C(=C\c1ccc(O)c(O)c1)C(N)=S
(10) CC[C@@]1(c2ccc(N)cc2)CCC(=O)NC1=O
(11) CC(=O)OC1C(=O)[C@]2(C)C(O)CC3OC[C@]3(OC(C)=O)C2[C@@H](OC(=O)c2ccccc2)[C@]2(O)CC(O)C(C)=C1C2(C)C (stereo not given in full)
(12) NC(=O)CI
(13) CNCCc1cnc[nH]1
(14) C=CCN1CC[C@]23CCCCC2[C@H]1Cc1ccc(O)cc13 (stereo not given in full)
(15) CN(CCc1ccc(Cl)c(Cl)c1)[C@H]1CCCC[C@H]1N1CCCC1
(16) COC(=O)/C(C)=C\CC12OC(C)(C)C3CC(C=C4C(=O)c5c(OC)c6c(c(CC=C(C)C)c5OC431)OC(C)(CCC=C(C)C)C=C6)C2=O (stereo not given)

screen / no. | 9 | 10 | 11 | 12 | 13 | 14 | 15 | 16
miR-21 FLuc | . | . | . | . | . | . | . | .
GLA inh pH 4.5 | -20 | -3 | -19 | -4 | -5 | 13 | -2 | -12

(17) CC(C)=CCCC1(C)C=Cc2c(O)c3c(c(CC=C(C)C)c2O1)OC12C(=CC4CC1C(C)(C)OC2(C/C=C(/C)C(=O)O)C4=O)C3=O (stereo not given)
(18) CN(C(=O)Cc1ccc(Cl)c(Cl)c1)[C@H](CN1CCCC1)c1ccccc1
(19) CC(=O)O[C@@H]1C[C@@]2(C)C(c3ccoc3)C[C@H]3O[C@]32[C@]2(C)C(=O)C(O)=C3C(C)(C)C(=O)C=C[C@]3(C)C12 (stereo not given in full)
(20) C[C@]12Cc3cn4c(nc3C=C1CCC1C2CC[C@@]2(C)[C@H]1CC[C@@]2(O)C#N)nc1ccccc14 (stereo not given in full)
(21) C[C@@]12CC[C@H](O)C[C@@H]1CC[C@H]1[C@H]2CC[C@@]2(C)[C@@H](C3=CC(=O)OC3)CC[C@]12O
(22) CN(C)CCc1ccc(O)cc1
(23) CCCCC/C=C\C/C=C\C/C=C\C/C=C\CCCC(=O)OCCN
(24) Clc1ccc([C@@H]2C[C@H]3CC[C@@H]2N3)cn1

screen / no. | 17 | 18 | 19 | 20 | 21 | 22 | 23 | 24
miR-21 FLuc | . | . | . | . | . | . | . | .
GLA inh pH 4.5 | -2 | -2 | 3 | 0 | 1 | -1 | -5 | 1

(25) CC(C)c1c(CN(C)[C@@H](C)Cc2ccccc2)n(C)n(-c2ccccc2)c1=O
(26) CCOP(=S)(OCC)SCn1c(=O)oc2cc(Cl)ccc21
(27) CCCCC[C@@H](/C=C/C=C\CCCCCCCC(=O)O)OO
(28) C=C(C)[C@H]1C2C(=O)O[C@H]1[C@H]1OC(=O)[C@@]34O[C@@H]3C[C@]2(O)[C@@]14C
(29) COc1cc(C2c3cc4c(cc3C(O)[C@H]3COC(=O)C23)OCO4)cc(OC)c1OC (stereo not given in full)
(30) CN1CC[C@]2(C)c3cc(O)ccc3N(C)[C@@H]12
(31) NC(Cc1ccc(N(CCCl)CCCl)cc1)C(=O)O (stereo not given)
(32) C[C@H](CCC(=O)O)C[C@H](C)C[C@H](C)C(=O)/C=C(\O)[C@H](C)C[C@H](C)C/C=C/[C@@H](C)[C@@H](O)[C@@H](C)[C@@H](O)C[C@@H]1CC[C@@](C)(C2CC[C@@](C)([C@@H](C)O)O2)O1 (stereo not given in full)

screen / no. | 25 | 26 | 27 | 28 | 29 | 30 | 31 | 32
miR-21 FLuc | . | . | . | . | . | . | . | .
GLA inh pH 4.5 | -3 | -5 | -5 | -1 | -1&0 | 5 | -6&11 | -18

(33) CCN1C[C@]2(C)CC[C@H](O)[C@@]34[C@@H]5C[C@@H]6[C@@H](OC)C[C@@](O)(C5[C@H]6O)[C@@H](C[C@@H]23)[C@@H]14
(34) Cc1o[nH]c(=O)c1C[C@H](N)C(=O)O
(35) CC12CCC3C(CCC4=C(O)C(=O)CCC43C)C1CCC2=O (stereo not given)
(36) C#CCN(C)[C@@H](C)Cc1ccccc1
(37) CC1CC2CC(=O)C3CCCN4CCCC2[C@]34C1 (stereo not given in full)
(38) CC1CC[C@@]2(NC1)O[C@@H]1C[C@H]3C4CC=C5C[C@@H](O)CC[C@]5(C)C4CC[C@]3(C)[C@H]1[C@@H]2C (stereo not given in full)
(39) O=C1Nc2ccc(Cl)cc2C(c2ccccc2)=NC1O (stereo not given)
(40) CCCN(CCC)CCc1ccc(O)c(O)c1

screen / no. | 33 | 34 | 35 | 36 | 37 | 38 | 39 | 40
miR-21 FLuc | . | . | . | . | . | . | . | .
GLA inh pH 4.5 | -7 | 0&-8&-1 | -5 | -7 | -1 | 2 | -3 | -5

(41) C=CCC(O)(C(=O)OC)c1ccccc1 (stereo not given)
(42) O=C(O)[C@@H]1C[C@H]2C[C@@H](CP(=O)(O)O)CC[C@H]2CN1
(43) CCCCCCCCCCCCCC(=O)OC1C(C)[C@@]2(O)C(C=C(CO)C[C@]3(O)C(=O)C(C)=C[C@H]23)[C@@H]2C(C)(C)[C@]12OC(C)=O (stereo not given in full)
(44) O=C(O)C1=CCCN(CCOC(c2ccc(C(F)(F)F)cc2)c2ccc(C(F)(F)F)cc2)C1
(45) CCOC(=O)c1ccc(NC(=O)c2cccn(Cc3ccccc3F)c2=O)cc1
(46) Nc1c(C(=O)Nc2cccc(F)c2)sc2nc(-c3cccs3)ccc12
(47) CCOC(=O)c1ccc(NC(=O)c2sc3nc4c(cc3c2N)N2CCC4CC2)cc1
(48) CN1C(=O)c2ccccc2Sc2ccc(NC(=O)c3ccc(C(F)(F)F)cc3)cc21

screen / no. | 41 | 42 | 43 | 44 | 45 | 46 | 47 | 48
miR-21 FLuc | . | . | . | . | 18% | -41% | ? | ?
GLA inh pH 4.5 | -4 | 1 | -1 | -4 | . | . | . | .

(49) CCOc1ccccc1CN(CCc1ccc2c(c1)OCO2)Cc1ccc(CC)cc1
(50) CCCCc1nc2ccccc2c(=O)n1-c1cccc(OC)c1
(51) CN(C(=O)CSc1nc2ccc(NC(=O)COc3ccc(Cl)cc3)cc2s1)c1ccccc1
(52) Cc1ccc(-c2nc(CN3C(=O)CN=C(c4ccccc4)c4cc(Cl)ccc43)c(C)o2)cc1
(53) CCOc1ccc(C(=O)Nc2cccc(C(=O)OCc3cc(=O)n4nc(C5CC5)sc4n3)c2)cc1
(54) CCOc1ccc(CN2C(=O)c3ccccc3Sc3ccc(C(=O)N4CCC5(CC4)OCCO5)cc32)cc1
(55) COc1ccc(-c2nn3c(=O)cc(CN4CCN(C(=O)COc5ccc(F)cc5)CC4)nc3s2)cc1
(56) O=C(CN1C(=O)CN=C(c2ccccc2)c2ccccc21)Nc1cccc(C(F)(F)F)c1

screen / no. | 49 | 50 | 51 | 52 | 53 | 54 | 55 | 56
miR-21 FLuc | 17% | 29% | ? | 5% | -34% | -11% | 2% | ?
GLA inh pH 4.5 | . | . | . | . | . | . | . | .

(57) O=c1[nH]c2ccccc2c(=O)n1-c1ccc(Cl)c(Cl)c1
(58) CCOC(=O)C1=C(CN2CCN(c3ccc(C)cc3C)CC2)NC(=O)NC1c1ccc(OC)cc1 (stereo not given)
(59) CCN(CC)C(=O)c1ccc(NC(=O)Cn2nc(-c3ccc(C)cc3)c3ccccc3c2=O)cc1
(60) Cc1oc(-c2ccc(Cl)cc2)nc1CN1C(=O)CN=C(c2ccccc2)c2cc(Cl)ccc21
(61) Cc1ccc(-n2c(/C=C/c3cccc(C(F)(F)F)c3)nc3ccccc3c2=O)cc1
(62) COc1ccc(CNCCc2cccc(F)c2)c2ccccc12
(63) O=C(Nc1ccc(Cl)c(C(F)(F)F)c1)c1ccc2c(c1)CCN2S(=O)(=O)c1ccccc1
(64) CCOc1ccc(CN(CCc2ccc3c(c2)OCO3)Cc2cccc(Br)c2)cc1

screen / no. | 57 | 58 | 59 | 60 | 61 | 62 | 63 | 64
miR-21 FLuc | -40% | ? | 0% | 29% | -1% | 2% | ? | 1%
GLA inh pH 4.5 | . | . | . | . | . | . | . | .

(65) COc1ccc(OC)c(NC(=O)Cn2cc(C(=O)c3ccccc3)c3ccccc32)c1
(66) Cc1cccc(C)c1OCC(=O)Nc1ccc(Cl)cc1C(=O)c1ccccc1
(67) O=C1CN=C(c2ccccc2)c2cc(Cl)ccc2N1Cc1ccc(Cl)cc1
(68) O=C(COc1ccccc1[N+](=O)[O-])N1CCN(CCc2ccccn2)CC1
(69) Cc1ccc(-c2nc(CN3C(=O)CN=C(c4ccccc4)c4ccccc43)c(C)o2)cc1
(70) Cc1ccc(OCC(=O)Nc2ccc(Cl)cc2C(=O)c2ccccc2)cc1C
(71) Cc1cccc(-n2c(/C=C\c3cccc(Br)c3)nc3ccccc3c2=O)c1
(72) c1ccc(N2CCN(c3ncnc4c3nc3n4CCCC3)CC2)cc1

screen / no. | 65 | 66 | 67 | 68 | 69 | 70 | 71 | 72
miR-21 FLuc | 12% | -6% | -1% | 1% | 11% | -1% | 0% | ?
GLA inh pH 4.5 | . | . | . | . | . | . | . | .

(73) O=C(c1ccc2c(c1)N(Cc1ccc(F)cc1Cl)C(=O)c1ccccc1S2)N1CCC2(CC1)OCCO2
(74) CCN(CC)c1nc2ccccc2nc1C(=O)Nc1cccc(C(C)=O)c1
(75) Cc1ccc(Cn2cccc(C(=O)Nc3ccc4c(c3)OCO4)c2=O)cc1
(76) CCOc1ccc(C2c3c(-c4ccccc4O)n[nH]c3C(=O)N2Cc2ccncc2)cc1 (stereo not given)
(77) COc1ccc(C(=O)Nc2ccc3c(c2)N(C)C(=O)c2ccccc2S3)cc1OC
(78) Cc1cc(C)cc(-n2c(=O)[nH]c3ccccc3c2=O)c1
(79) CCc1ccc(N(CC)C(=O)CCn2cnc3onc(-c4ccc(F)cc4)c3c2=O)cc1
(80) Nc1c(C(=O)Nc2ccc(Br)cc2F)sc2nc3c(cc12)N1CCC3CC1

screen / no. | 73 | 74 | 75 | 76 | 77 | 78 | 79 | 80
miR-21 FLuc | 8% | ? | -5% | ? | ? | -12% | ? | -7%
GLA inh pH 4.5 | . | . | . | . | . | . | . | .

(81) COc1ccc(-c2nc(CSCC(=O)N3CCN(c4ccc(F)cc4)CC3)c(C)o2)cc1
(82) O=C1NC(=S)N(c2ccc(F)cc2)C(=O)/C1=C/c1ccco1
(83) COc1ccc(NC(=O)CN2C(=O)C(C)N=C(c3ccccc3)c3ccccc32)cc1OC (stereo not given)
(84) CCCC1=Nc2cc(C(=O)NCCc3ccc(OC)cc3OC)ccc2Sc2ccccc21
(85) COc1ccc(-n2c(/C=C/c3cccc(F)c3)nc3ccccc3c2=O)cc1Cl
(86) Cc1ccccc1-n1c(/C=C/c2ccc(O)cc2)nc2ccccc2c1=O
(87) COc1ccc(-c2nc3ccccc3o2)cc1NC(=O)Cc1ccc(Cl)cc1
(88) Cc1ccc(-n2c(/C=C/c3cccc4ccccc34)nc3ccccc3c2=O)cc1
(89) Cc1cccc(Cn2cccc(C(=O)Nc3cc(C)on3)c2=O)c1
(90) COc1ccc(-c2nc(CN3C(=O)CN=C(c4ccccc4Cl)c4cc(Cl)ccc43)c(C)o2)cc1OC
(91) CCCc1ccc(OCC(=O)Nc2ccc(Cl)cc2C(=O)c2ccccc2)cc1

screen / no. | 81 | 82 | 83 | 84 | 85 | 86 | 87 | 88 | 89 | 90 | 91
miR-21 FLuc | ? | 8% | 16% | ? | 0% | ? | -33% | -4% | -1% | 16% | -2%
GLA inh pH 4.5 | . | . | . | . | . | . | . | . | . | . | .

Laid out differently: 4 of the compounds above
[69] Cc1ccc(-c2nc(CN3C(=O)CN=C(c4ccccc4)c4ccccc43)c(C)o2)cc1
  miR-21 FLuc: 11%	GLA inh pH 4.5: .
[33] CCN1C[C@]2(C)CC[C@H](O)[C@@]34[C@@H]5C[C@@H]6[C@@H](OC)C[C@@](O)(C5[C@H]6O)[C@@H](C[C@@H]23)[C@@H]14
  miR-21 FLuc: .	GLA inh pH 4.5: -7
[75] Cc1ccc(Cn2cccc(C(=O)Nc3ccc4c(c3)OCO4)c2=O)cc1
  miR-21 FLuc: -5%	GLA inh pH 4.5: .
[49] CCOc1ccccc1CN(CCc1ccc2c(c1)OCO2)Cc1ccc(CC)cc1
  miR-21 FLuc: 17%	GLA inh pH 4.5: .
